Bioassay records from PubChem BioAssay.
GALR2 ag = GALR2 receptor agonists, primary screen, cell-based; Galanin receptor type 2 (Homo sapiens), O43603; GALR2-expressing cells, agonist activation read-out; activation, %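 (tested at 5 µM)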; 140,000 tested, 0.48% active; AID 803, 2007;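 active means above mean plus 3 SD of all compounds, about 5% in these data, not always enough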;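 further: 0% = vehicle buffer wells and 100% = reference agonist at full effect; tested in CHO reporter cells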
Target sequence (O43603 whole entry, looked up): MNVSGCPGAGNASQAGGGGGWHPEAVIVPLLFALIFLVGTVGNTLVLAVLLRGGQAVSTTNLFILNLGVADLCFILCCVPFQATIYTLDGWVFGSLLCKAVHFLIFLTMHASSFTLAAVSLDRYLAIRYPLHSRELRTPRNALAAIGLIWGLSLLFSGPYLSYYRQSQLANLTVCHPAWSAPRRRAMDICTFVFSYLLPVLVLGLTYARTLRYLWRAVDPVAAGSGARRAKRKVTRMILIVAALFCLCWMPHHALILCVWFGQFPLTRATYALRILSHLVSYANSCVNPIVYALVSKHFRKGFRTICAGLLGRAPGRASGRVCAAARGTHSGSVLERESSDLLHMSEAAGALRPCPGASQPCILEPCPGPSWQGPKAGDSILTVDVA
HSV replic up = enhancers of HSV replication in host cells, fold increase, host cell viability. HSV replication augmentation in cells. maximum fold increase. 220,000 tested, 0.005% active. AID 1956, 2009;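 active means peak rise of 1.5-fold or more in the series; tested in PC3 cells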;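 further: first round at 10 µM; read as green reporter fluorescence; hits show the peak of a series up to 25 µM; 1 = signal of infected wells without compound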
Insulin prom inh = inhibitors of insulin promoter-driven GFP, primary screen, imaging, TRM-6 cells (human fetal islet line), eGFP reporter, cell count; reporter expression induced with tamoxifen; inhibition, % at 2 µM; 130,000 tested, 0.9% active;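 active means inhibition above the mean plus 3 SD, with well images judged a real hit on visual review, cut at about 60% in these data, passing the limit was not always enough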
RGS16-Gao HTS = modulators of RGS16 binding to Galphao, primary screen, biochemical, human proteins, multiplexed bead flow cytometry; bead-based flow cytometry RGS16-Galphao binding, fluorescence; actives lie on both sides; Regulator of G-protein signaling 16 (Homo sapiens) + Guanine nucleotide-binding protein …; binding response (% of control), % at 10 µM; 220,000 tested, 0.38% active;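 active means below 25% or above 175%, edge rows of some plates excepted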;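 further: Galphao activated by GDP with aluminum fluoride before binding; 100% = wells without compound and 0% = beads without RGS; some results beyond the cut were filed as inactive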
Target sequence (O15492 whole entry, looked up): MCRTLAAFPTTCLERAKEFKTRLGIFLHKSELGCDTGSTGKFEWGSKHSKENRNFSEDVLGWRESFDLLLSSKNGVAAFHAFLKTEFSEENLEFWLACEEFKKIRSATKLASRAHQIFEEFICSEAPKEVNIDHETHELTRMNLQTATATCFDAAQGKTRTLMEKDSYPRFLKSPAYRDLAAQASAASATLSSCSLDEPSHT
Target sequence (P09471 whole entry, looked up): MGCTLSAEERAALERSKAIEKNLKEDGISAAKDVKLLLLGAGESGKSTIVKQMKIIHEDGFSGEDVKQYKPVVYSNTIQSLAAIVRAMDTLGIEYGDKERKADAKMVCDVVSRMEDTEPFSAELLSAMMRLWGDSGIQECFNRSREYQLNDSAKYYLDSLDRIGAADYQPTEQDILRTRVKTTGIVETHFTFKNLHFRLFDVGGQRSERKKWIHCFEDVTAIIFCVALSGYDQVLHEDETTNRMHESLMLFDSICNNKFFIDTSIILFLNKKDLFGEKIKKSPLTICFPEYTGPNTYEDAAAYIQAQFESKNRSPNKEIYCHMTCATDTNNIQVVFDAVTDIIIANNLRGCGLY
PKD1 kinase inh = inhibitors of human PKD1 kinase, biochemical, fluorescence polarization | Serine/threonine-protein kinase D1 (Homo sapiens), Q15139 | PKD1 kinase fluorescence polarization assay | inhibition, %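 (about 10 µM by stock and volumes)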 | 200,000 tested, 0.056% active | AID 797, 2007;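 active means inhibition of 50% or more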;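 further: controls were vehicle for no effect and a reference inhibitor for full effect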
Insulin prom inh cell count = second read-out of Insulin prom inh, no call of its own (marks repeat the call); normalized cell count, %; measured here: cell count, toxicity; reference of the scale not given here;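 cells exposed to compound for 48 h; stained nuclei by imaging scaled within each plate; lower means fewer cells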
HSV replic up primary fold = recorded beside HSV replic up, whose call it bears; fold increase; compound at 10 µM; measured here: primary screen fold increase 10 uM; tested in PC3 cells;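 GFP signal in the first replicate; 1 = infected wells without compound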
* = called active by the depositor; i = inactive; / = not tested or not shown.

Order of values: Insulin prom inh cell count | Insulin prom inh | PKD1 kinase inh | HSV replic up primary fold | GALR2 ag | HSV replic up | RGS16-Gao HTS
1: O=C(/C=C/c1ccccc1)NC1CCS(=O)(=O)C1 (configuration not stated)
  91 | -62 | 6 | 0.96 | -0.2 | i | 106
2: COC(=O)N/N=C/c1c(C)cc(C)cc1C
  84 | -65 | -8 | 0.97 | -0.5 | i | 108
3: OC(COc1ccc2c(c1)OCO2)CN1CCc2ccccc2C1 (configuration not stated)
  / | / | -12 | 1.1 | -0.5 | i | 94
4: O=C(Nc1ccc(-c2ccc3nncn3n2)cc1)C1CCCCC1
  / | / | -9 | 0.99 | / | i | 105
5: Nc1nccnc1C(=O)N/N=C/c1ccco1
  / | / | / | 1 | / | i | 99
6: COc1cc(/C=C(/C#N)c2nc3ccccc3c(=O)[nH]2)ccc1O
  129 | 12 | -11 | 2.8 | 0.6 | i | 103
7: O=C(O)C1c2ccccc2C(=O)N(Cc2ccc(F)cc2)C1c1ccncc1 (configuration not stated)
  / | / | / | 0.99 | / | i | 99
8: CCOC(=O)c1sc(=S)n(CC)c1N
  130 | 0 | -7 | 0.9 | -1.7 | i | 103
9: O=C(CSc1ccc2ccccc2n1)Nc1nsc(-c2ccc(Cl)cc2)n1
  / | / | -9 | 0.99 | -0.6 | i | 104
10: NC(=O)c1cc(N)ccc1N1CCCCC1
  110 | -27 | -1 | 0.92 | / | i | 100
11: Cc1cccc(CSc2nc3c(c(=O)n2C)SCC3)c1
  53 | 23 | -1 | 0.69 | / | i | 99
12: Cc1ccc(CN2CCS(=O)(=O)CC2)cc1
  61 | 14 | 0 | 0.89 | 0.4 | i | 104
13: CC(C)(Oc1ccc(Cl)cc1)C(=O)OCC(=O)N1CCCC1
  / | / | 5 | 0.9 | -0.5 | i | 99
14: O=C(CSc1nc2ccccc2[nH]1)NCC1CCCO1 (configuration not stated)
  / | / | -4 | 1.1 | 0.1 | i | 103
15: CN(Cc1ccccc1)C(=O)c1ccccc1NC(=O)c1ccco1
  71 | -20 | -8 | / | -3.9 | / | 102
16: CCOC(=O)/C(=C/Nc1ccc(F)cc1)[N+](=O)[O-]
  / | / | / | 0.99 | / | i | 98
17: O=C1CCCN2N=C(SCC(=O)Nc3nc4ccccc4s3)SC2=N1
  93 | 32 | 4 | 1.1 | / | i | 99
18: COC(=O)C1=C(C)NC(C)=C(C(=O)OC)C1C(=O)OC(C)C(=O)c1ccccc1 (configuration not stated)
  / | / | 0 | 0.83 | / | i | 98
19: Cc1cc(C(=O)NCCC2=CCCCC2)no1
  154 | 38 | -5 | 0.81 | -1.9 | i | 108
20: CCOC(=O)Cn1cnc2sc(C(=O)OC)c(C)c2c1=O
  86 | -20 | -8 | 0.92 | / | i | 116
21: CCCCn1c(C)csc1=Nc1cccnc1
  108 | 37 | -4 | 0.96 | -1.4 | i | 98
22: CC(=O)Oc1ccc(C(=O)[C@H]2[C@H]3C(=O)N(c4ccc5ccccc5c4)C(=O)[C@H]3[C@@H]3C=CC=NN32)cc1
  / | / | 1 | 1.1 | -0.8 | i | 100
23: Cc1ccc(C2C(C#N)=C(N)Oc3n[nH]c(-c4cccs4)c32)cc1 (configuration not stated)
  53 | -228 | 1 | 1 | -1.1 | i | 92
24: COc1ccc(N2C(=O)CC(Sc3nnc(-c4ccccc4F)n3C)C2=O)cc1 (configuration not stated)
  77 | -21 | 11 | 1 | / | i | 109
25: Cc1cc(C)nc(SCc2nnc(SCC(=O)N3CCCc4ccccc43)n2C)n1
  110 | -3 | -2 | 0.95 | -1.7 | i | 101
26: CC1(C)CC(N2CCN(c3ccccc3)CC2)=CC(=[N+]2CCCC2)C1
  / | / | -16 | 0.72 | -1.3 | i | 103
27: CS(=O)(=O)Cc1nc2ccccc2oc1=O
  / | / | -7 | 0.93 | -0.4 | i | 100
28: O=C(Nc1ccccc1C(=O)OCC(=O)c1c[nH]c2ccccc12)c1ccco1
  / | / | 5 | 1.1 | -0.8 | i | 99
29: COc1cccc(CN2CCN(C(=O)c3ccc(-c4ccccc4)cc3)CC2)c1
  159 | 9 | 1 | 0.96 | -0.1 | i | 104
30: CC1CCc2nc3ccc(S(=O)(=O)N4CCC(C(=O)N5CCCCCC5)CC4)cc3c(C(=O)O)c2C1 (configuration not stated)
  109 | 0 | 3 | 1.1 | / | i | 103
31: CCCC(=O)Nc1cc2c(cc1C(=O)c1ccccc1)OCCO2
  / | / | -4 | 0.84 | -2.0 | i | 102
32: CCSc1nc2ccccc2n1Cc1nc(N)nc(N(C)C)n1
  126 | 0 | -7 | 0.79 | 1.5 | i | 105
33: Cc1ccc(SCC2(O)CCN(S(=O)(=O)c3ccc(Cl)cc3)CC2)cc1
  48 | -46 | -3 | 0.86 | -1.1 | i | 54
34: O=C(COc1ccccc1-c1ccccc1)NCc1ccco1
  103 | -42 | 2 | 1.1 | / | i | 106
35: CCn1c(CCNC(=O)c2cccs2)nnc1SCC(=O)NC1CCCCC1
  58 | 11 | 0 | 1 | -0.7 | i | 112
36: Cc1cc(C)n2nc[n+](C)c2n1
  92 | -20 | 2 | 0.94 | -1.3 | i | 104
37: O=C(Oc1ccc(OC(=O)N2CCCCC2)cc1)N1CCCCC1
  100 | 43 | 7 | 1.1 | / | i | 107
38: Cc1c(C#N)c(O)n(CCO)c(=O)c1N=Nc1ccccc1
  / | / | / | 0.87 | / | i | 97
39: Cc1noc(C)c1CS(=O)(=O)c1ccc(Br)cc1
  80 | 3 | -4 | / | -0.8 | / | 106
40: O=c1cc(O)nc[nH]1
  / | / | / | 0.89 | / | i | 96

3 entries from above, with bars between the fields.
item | SMILES | Insulin prom inh cell count | Insulin prom inh | PKD1 kinase inh | HSV replic up primary fold | GALR2 ag | HSV replic up | RGS16-Gao HTS
30 | CC1CCc2nc3ccc(S(=O)(=O)N4CCC(C(=O)N5CCCCCC5)CC4)cc3c(C(=O)O)c2C1 (configuration not stated) | 109 | 0 | 3 | 1.1 | / | i | 103
23 | Cc1ccc(C2C(C#N)=C(N)Oc3n[nH]c(-c4cccs4)c32)cc1 (configuration not stated) | 53 | -228 | 1 | 1 | -1.1 | i | 92
27 | CS(=O)(=O)Cc1nc2ccccc2oc1=O | / | / | -7 | 0.93 | -0.4 | i | 100

Further records follow:
Order of values: Insulin prom inh cell count | Insulin prom inh | PKD1 kinase inh | HSV replic up primary fold | GALR2 ag | HSV replic up | RGS16-Gao HTS
41: CCc1cc(C(=O)COc2ccccc2F)c(O)cc1O
  / | / | 0 | 0.8 | -2.1 | i | 100
42: CCC(CCC(=O)Nc1ccn(-c2ccccc2)n1)C(=O)O (configuration not stated)
  62 | -12 | -5 | 0.93 | -0.9 | i | 102
43: O=C(O)CC12C[C@H]3C[C@@H](C1)CC(n1ncc(N4CCN(c5ccccc5)CC4)c(Cl)c1=O)(C3)C2
  107 | 55 | -4 | 1.3 | -1.8 | i | 98
44: COc1ccc(OC(=O)c2cn(C)nc2C(F)(F)F)cc1
  / | / | 1 | 0.37 | 1.2 | i | 97
45: Cc1ccc(C)c(OCCCC(=O)N2CCOCC2)c1
  96 | -29 | -2 | 1 | / | i | 94
46: CCn1ncc(Br)c1C(=O)Nc1cc(C)cc(C)c1
  95 | -50 | 0 | 0.92 | -0.9 | i | 103
47: Cc1cc2nnc(SC(C)C)n2c2ccccc12
  79 | 25 | -3 | 0.98 | -1.7 | i | 93
48: CC(C)c1csc(CN2CCC(CO)(Cc3cccc(F)c3)CC2)n1
  / | / | -2 | 0.99 | / | i | 98
49: O=C(N/N=C/c1c[nH]c2ccccc12)c1cc(-c2ccc(-c3ccccc3)cc2)n[nH]1
  / | / | -11 | 0.67 | -1.2 | i | 95
50: O=C(CCS(=O)NCc1ccccc1)NCc1ccccc1 (configuration not stated)
  104 | -3 | -9 | 1 | -0.8 | i | 110
51: Cc1ccccc1NC(=O)CSc1nc(Nc2ccccc2)nc(N2CCOCC2)n1
  109 | -6 | -4 | 0.89 | -1.2 | i | 101
52: CC(C)NC(=O)c1nn2c(C(F)(F)F)cc(-c3ccco3)nc2c1Cl
  94 | -50 | 2 | 0.78 | / | i | 98
53: CCCN1C2=C(C(=O)CCC2)C(c2ccc(F)cc2)C2=C1c1ccccc1C2=O (configuration not stated)
  157 | 30 | -6 | / | 0.2 | / | /
54: COc1ccccc1CN=C1NC(=O)C(CC(=O)Nc2ccc(C(C)=O)cc2)S1 (configuration not stated)
  / | / | / | 1.2 | / | i | 99
55: O=C(Oc1ccc[nH]c1=O)c1cccc(Cl)c1
  / | / | / | 0.9 | / | i | 97
56: O=C(CSc1nnc2ccccn12)Nc1ccc(S(=O)(=O)N2CCOCC2)cc1
  125 | 21 | 2 | 0.99 | / | i | 99
57: Cc1ccc(NS(C)(=O)=O)c(C(=O)c2ccccc2)c1
  121 | 28 | -8 | 0.96 | -0.7 | i | 97
58: Cc1ccc(NC(=O)C2CC(=O)Nc3nncn32)cc1 (configuration not stated)
  / | / | -10 | 0.99 | / | i | 99
59: O=C(NCc1cccnc1)NC1CC(=O)N(c2ccc3c(c2)OCCO3)C1 (configuration not stated)
  123 | 17 | -5 | 0.95 | / | i | 103
60: Oc1ccccc1/C=N/NC(=S)NC1CC2CCC1C2 (configuration not stated)
  / | / | / | 0.82 | / | i | 100
61: CCn1nnnc1SCC(=O)N1c2ccccc2Sc2ccccc21
  / | / | 3 | 0.89 | -1.7 | i | 109
62: CCCCC(=O)NC(NC(=S)N1CCOCC1)C(Cl)(Cl)Cl (configuration not stated)
  / | / | 1 | 1.1 | -3.1 | i | 104
63: CCN1CCN(C(=S)Nc2ccc(C(C)=O)cc2)CC1
  / | / | -4 | 0.86 | / | i | 106
64: COC(=O)CSc1nnc([C@H](Cc2ccccc2)NC(=O)OC(C)(C)C)o1
  / | / | 1 | 0.57 | 0.0 | i | 107
65: O=S(=O)(/N=C/c1ccccc1O)c1cccs1
  / | / | 1 | 0.76 | -2.2 | i | 104
66: COc1ccc(NC(=O)C2CCCN(c3c4c(nc5ncnn35)CCC4)C2)cc1OC (configuration not stated)
  / | / | -9 | 0.9 | -0.3 | i | 101
67: CCc1ccc(NC(=O)Nc2ccncc2)cc1
  67 | -268 | -3 | 0.95 | / | i | 101
68: CCCn1nnnc1NC(=O)c1cc(Br)ccc1OC
  / | / | 4 | 0.94 | / | i | 96
69: Cc1cc(N/N=C/c2ccc(Cl)cc2Cl)nc(NCc2ccccc2)n1
  / | / | -15 | 0.84 | 0.2 | i | 99
70: COc1ccc(OC)c2c1sc(=NC(=O)C1CCCCC1)n2C
  / | / | / | 1.1 | / | i | 100
71: O=C(Nc1ccc(-c2nc3ccccc3[nH]2)cc1)c1ccccc1NS(=O)(=O)c1ccc(F)cc1
  / | / | -1 | 0.94 | -0.5 | i | 109
72: CC(C)(C)c1ccc(-c2noc(CCC(=O)NCC3CCCO3)n2)cc1 (configuration not stated)
  70 | -3 | -4 | 0.97 | -0.6 | i | 110
73: O=C(O)CCN1C(=O)/C(=C\c2ccncc2)SC1=S
  / | / | -1 | 0.91 | / | i | 101
74: Nc1c(C(=O)Nc2ccccc2)sc2ncc([N+](=O)[O-])cc12
  / | / | / | 0.98 | / | i | 89
75: O=C(OCc1ccc(Cl)c(Cl)c1)c1cnccn1
  122 | -18 | 0 | 0.99 | -0.9 | i | 106
76: CCCn1c(=S)[nH]c2cc(C(=O)N3CCc4ccccc4C3)ccc2c1=O
  160 | 12 | -5 | 1.1 | / | i | 101
77: COc1ccc(S(=O)(=O)NCc2ccco2)cc1-c1nnc2c3ccccc3c(C)nn12
  113 | -13 | -9 | 0.94 | -1.3 | i | 96

One compound at a time, from the list above:
Entry for `O=c1cc(O)nc[nH]1` → Insulin prom inh cell count: /; Insulin prom inh: /; PKD1 kinase inh: /; HSV replic up primary fold: 0.89; GALR2 ag: /; HSV replic up: i; RGS16-Gao HTS: 96
Entry for `Cc1ccc(SCC2(O)CCN(S(=O)(=O)c3ccc(Cl)cc3)CC2)cc1` → Insulin prom inh cell count: 48; Insulin prom inh: -46; PKD1 kinase inh: -3; HSV replic up primary fold: 0.86; GALR2 ag: -1.1; HSV replic up: i; RGS16-Gao HTS: 54
